Screening data: PubChem, several laboratories
LANA-H2A inh: blocks KSHV LANA binding to histone H2A/H2B. cell-free LANA-H2A/H2B peptide, fluorescence polarization. Q9QR71. inhibition, % (concentration not given with the values). actives 0.6% (n = 320,000). AID 2629; in the data active means inhibition mostly above about 10%, no sharp cut-off; inactive means mostly below about 6.7%;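 further: stock transfer was 7.5 nL into about 10 µL; 0% = median of vehicle wells and 100% = median of positive control wells; one replicate is shown; the record names a cut of 25% in any replicate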
Beta2AR agonist: human beta-2 adrenergic receptor agonism by FAP; P07550; Am2.2-beta2AR cells, FAP receptor internalization, flow cytometry; reference of the scale not given here; response, % (concentration not given with the values); actives 0.43% (n = 340,000); AID 504454;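 active means response above a set limit, near 3 SD of response in nonfluorescent compounds, cut at about 42% in these data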;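 further: stock transfer was 100 nL into about 11 µL; a reference agonist was the positive control; negative values mostly stem from fluorescent compounds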
Target sequence (P07550 whole entry, looked up): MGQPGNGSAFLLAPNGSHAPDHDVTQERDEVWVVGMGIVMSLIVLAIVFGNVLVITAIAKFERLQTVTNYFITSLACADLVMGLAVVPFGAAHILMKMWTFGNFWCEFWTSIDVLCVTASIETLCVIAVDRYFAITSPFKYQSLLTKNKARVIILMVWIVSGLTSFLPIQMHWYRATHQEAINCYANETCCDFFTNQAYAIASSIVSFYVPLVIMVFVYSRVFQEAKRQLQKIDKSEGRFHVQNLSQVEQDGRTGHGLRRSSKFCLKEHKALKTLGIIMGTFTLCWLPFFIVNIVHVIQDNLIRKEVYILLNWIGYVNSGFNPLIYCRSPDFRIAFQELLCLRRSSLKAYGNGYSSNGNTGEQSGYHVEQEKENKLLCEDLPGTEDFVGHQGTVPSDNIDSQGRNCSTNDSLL
RanGTP-Impb inh: disruptors of Ran-importin-beta complex formation – biochemical, FRET, CFP-Ran, YFP-importin-beta, homogeneous, primary screen. actives 1.1% (n = 300,000). inhibition, % (concentration not given with the values). cell-free CFP-Ran/YFP-importin-beta FRET ratio;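 active means most replicates above 15%; inconclusive means exactly half above 15%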;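 further: 0% = DMSO wells and 100% = Ran loaded with GDP instead of GTP; wells of about 40 µL received 100 nL stock; the first replicate is given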
Calb FLC: C. albicans growth modulation with fluconazole; C. albicans CaCi-2 (fluconazole-resistant clinical isolate) + fluconazole, Alamar Blue growth, 48 h; growth inhibition, % (no concentration beside the values); actives 0.57% (n = 300,000); AID 1979;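 active means most replicates above 75%; inconclusive means exactly half above 75%; inactive means most below 75%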;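 further: all wells also contain fluconazole at 8 µg/ml as a sub-toxic cotreatment; 0% = median of DMSO wells and 100% = median of geldanamycin control wells; wells of about 8 µL received 7.5 nL stock; the first replicate is given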
HNF4A DNA FP: change in binding of human HNF4 alpha to DNA | activity change, % at 10 µM | HNF4a-FITC DNA binding, fluorescence polarization, 1 h | actives 0.3% (n = 360,000) | AID 1224865; in the data active means activity change above about 30%, passing the limit was not always enough;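 further: controls were the assay level and a saturating level of protein; the project sought stronger binding though the title names inhibitors; some compounds called inactive have numbers as strong as hits; positive values seem to mean higher polarization but the record does not say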
Target sequence (P41235 whole entry, looked up): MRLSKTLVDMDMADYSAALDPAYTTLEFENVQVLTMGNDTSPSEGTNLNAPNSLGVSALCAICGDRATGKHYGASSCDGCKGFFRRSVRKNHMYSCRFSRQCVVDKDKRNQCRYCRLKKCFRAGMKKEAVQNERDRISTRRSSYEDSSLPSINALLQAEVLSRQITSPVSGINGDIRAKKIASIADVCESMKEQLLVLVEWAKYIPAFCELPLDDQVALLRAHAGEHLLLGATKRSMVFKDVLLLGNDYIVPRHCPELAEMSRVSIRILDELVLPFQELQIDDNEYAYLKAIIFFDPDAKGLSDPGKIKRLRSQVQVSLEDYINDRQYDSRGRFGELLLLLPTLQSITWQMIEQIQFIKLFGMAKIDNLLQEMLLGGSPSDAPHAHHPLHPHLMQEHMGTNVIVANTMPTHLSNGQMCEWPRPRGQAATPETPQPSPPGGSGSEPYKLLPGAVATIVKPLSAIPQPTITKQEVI
Vif TR-FRET: inhibitors of Vif binding to APOBEC3G peptide, primary screen, biochemical, TR-FRET, GST-Vif 1-94, biotin-A3G peptide, dose response retest (AID 1117319); TR-FRET GST-Vif / biotin-A3G peptide binding; higher % means a stronger effect; test concentration not given here; strong numbers were not always called active; inhibition, %, or IC50 in µM where a hit was titrated; actives 0.57% (n = 260,000);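 active means above the screen mean plus three standard deviations and confirmed in dose response; inconclusive means results disagree or hit not tested in dose response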;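 further: Vif residues 1-94 fused to GST binding biotinylated APOBEC3G peptide 110-148; 0% = full assay without inhibitor and 100% = GST in place of GST-Vif; retest series ran down from 100 µM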
ALR H2O2 inh: inhibitors of human sulfhydryl oxidase ALR; AID 485317; purified ALR, DTT oxidation, H2O2 HRP-luminol luminescence; actives 3.8% (n = 290,000); inhibition, % (test concentration not listed); P55789;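 active means mean and each replicate at 75% or more; inconclusive means only one of the two met; inactive means neither met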;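 further: stock transfer was 7.5 nL into about 7.5 µL; 0% = neutral wells and 100% = wells with inactivated enzyme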
Target sequence (P55789 whole entry, looked up): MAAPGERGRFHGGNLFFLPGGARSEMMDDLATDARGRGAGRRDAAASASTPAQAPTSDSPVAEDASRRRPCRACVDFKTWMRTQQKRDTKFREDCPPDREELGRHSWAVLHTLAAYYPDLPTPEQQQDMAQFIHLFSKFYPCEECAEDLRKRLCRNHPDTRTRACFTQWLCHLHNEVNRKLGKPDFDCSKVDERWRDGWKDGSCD
The depositor's hits bear a star; i = inactive; u = inconclusive; x = not tested or not shown; & = joins results of further samples.

nr	Molecule	LANA-H2A inh	ALR H2O2 inh	RanGTP-Impb inh	Beta2AR agonist	HNF4A DNA FP	Vif TR-FRET	Calb FLC
1	CCOc1ccc(C2=NNC(c3cccs3)=Nc3ccc(OC)cc32)cc1	0.9	-0.8	0.2	-19.6	3.1	5.1%	18.7
2	CN(CCOc1ccccc1)CC(=O)Nc1cc([N+](=O)[O-])ccc1Cl	3.1	-3.3	0.5	5.8	2.5	20.4%	22.3
3	O=C(O)CNc1ccccc1C(=O)O	-6.7	-1.1	3.7	2.2	-13.1	11.7%	-9.4
4	Cc1cc(NC(=O)CSc2nc3cc(C)c(C)cc3cc2C)no1	3.6	-0.2	-1.0	-10.0	-1.5	x	-2.4
5	CC(C)(/C=N/O)/[N+]([O-])=C/c1ccccc1	0.6	-5.3	-0.3	-0.6	-3.1	14.5%	-21.5
6	COc1ccc(Cl)cc1NC(=O)NN1CCN(C)CC1	-0.2	-5.0	-1.3	1.3	-1.2	-3.7%	-6.1
7	Cc1cn(C2OC(COC(=O)c3ccccc3)C(O)C2Cl)c(=O)[nH]c1=O (stereo not given)	-4.9	-5.7	0.3	-4.8	-0.1	-8.5%	-5.3
8	Nc1nc2nccc(-c3ccco3)n2n1	-4.6	-6.2	3.7	-1.5	-1.1	20.4%	-19.3
9	N/C(=N\OC(=O)CC1CCCCC1)c1ccc([N+](=O)[O-])cc1	-9.2	20.8	-2.6	8.2	1.6	-0.1%	-2.9
10	COc1ccccc1C(C)Nc1nc(-c2cccnc2)nc2ccccc12 (stereo not given)	-3.4	-0.6	4.9	7.6	1.6	-1.3%	10.6
11	CN(C)c1cccc(C(=O)N2CCCC(CCC(=O)NCc3ccccc3F)C2)c1 (stereo not given)	0.2	29.4	4.9	12.3	-1.7	x	11.6
12	CSc1nnc(-c2cccn(Cc3cccc(Cl)c3)c2=O)o1	5.6	-4.9	2.2	-2.3	-1.4	-7.8%	0.3
13	CC(=O)Nc1ccc(NC(=O)C2CCCN2C(=O)Nc2cccc(F)c2)cc1 (stereo not given)	-1.1	-3.6	-1.6	5.0	-1.4	-0.5%	7.5
14	CCOC(=O)CSc1nc(Nc2ccc3c(c2)OCO3)c2ccccc2n1	4.4	x	-0.3	6.0	-0.6	2.5%	9.8
15	CN(C)c1ccc(S(=O)(=O)N2CCCCC2)cc1NC(=O)C1=NN(c2ccccc2)C(=O)CC1	-2.9	-0.1	0.0	18.0	-0.4	x	-3.5
16	O=C(N=c1ccn(-c2nc3ccccc3nc2NS(=O)(=O)c2ccccc2)cc1)c1cccs1	-9.5	-1.8	-3.7	12.2	6.8	i	-4.1
17	CCCN(CC1CC1)S(=O)(=O)c1ccc(S(N)(=O)=O)cc1	-2.6	-16.0	4.6	0.5	0.7	3.0%	0.2
18	Clc1cccc(-c2ccc(/C=N/n3cnnc3)o2)c1	0.4	-1.3	3.6	2.1	1.2	31.0%	15.1
19	CC(C)=C1C2CCC1C1C(=O)N(NC(=O)COc3ccc(C(C)(C)C)cc3)C(=O)C21 (stereo not given)	-0.6	-5.7	1.8	3.2	3.6	-0.4%	-0.6
20	COc1ccc(N(C(=O)c2ccco2)C(C(=O)NC2CCCC2)c2ccco2)cc1OC (stereo not given)	-0.8	-47.2	u	-6.4	1.4	0.9%	0.4
21	CC(C)CCn1c(Br)nc2c1c(=O)n(CC(N)=O)c(=O)n2C	-6.3	8.0	2.5	-5.9	-2.2	28.3%	1.9
22	Cc1nc2n(n1)C(c1ccccc1)C1=C(CC(c3ccco3)CC1=O)N2 (stereo not given)	-1.0	-2.9	0.6	-3.0	0.4	2.6%	-1.4
23	O=C(/C=C/c1ccco1)N1CCN(c2ccc(F)cc2)CC1	2.3	27.8	6.0	0.0	-2.0	x	5.5
24	NS(=O)(=O)c1ccc(CCNC(=O)c2cc(-c3cccs3)nc3ccccc23)cc1	x	x	0.9	0.4	-2.8	-9.2%	12.2
25	COc1ccccc1NS(=O)(=O)c1ccc(O)c(NC(=S)NCC2CCCO2)c1 (stereo not given)	0.4	x	2.4	12.3	2.4	-6.5%	0.9
26	COc1ccc(NC(=O)C(CCSC)N2C(=O)c3ccccc3C2=O)cc1 (stereo not given)	1.1	-13.8	0.8	-0.5	-0.5	0.7%	4.9
27	COC1=CC(=O)C(C2CC(=O)c3c(O)cc(O)cc3O2)=CC1=O (stereo not given)	x	x	x	8.9	-2.4	15µM*	x
28	O=C1OC(c2ccccc2)=C/C1=C/N1CCOCC1	0.9	-7.2	3.1	-3.8	3.4	11.8%	0.2
29	COc1ccc(CCCc2nnc(SCC(=O)Nc3nc(C)cs3)n2C)cc1C	-2.5	0.0	-3.5	3.0	1.6	10.6%	1.1
30	Cc1cc(C)nc(NC=C2C(=O)OC(C)(C)OC2=O)n1	-0.5	5.0	0.1	-18.3	-0.1	-0.7%	-3.2
31	COc1ccc(NC(=S)Nc2ccc(N)c([N+](=O)[O-])c2)cc1	5.7	x	-0.7	-1.6	3.3	10.0%	12.7
32	COc1ccc(C(=O)NC2CC(C)(C)NC(C)(C)C2)cc1OC	-0.7	x	5.7	1.6	3.8	-7.5%	-4.4
33	Cc1ccc([N+](=O)[O-])cc1S(=O)(=O)N1CCN(C)CC1	-7.1	-1.4	-1.9	-1.0	0.4	-9.3%	-0.3
34	COc1ccccc1NS(=O)(=O)c1cc(C(=O)NCC(c2ccco2)N(C)C)ccc1C (stereo not given)	0.3	48.6	x	3.9	-3.4	-3.5%	-6.5
35	O=C(CCCOc1ccc(Br)cc1)NCCc1ccc(OC(F)F)cc1	2.6	3.5	1.8	2.0	5.2	-8.5%	3.0
36	CN1CCN(C(=S)c2ccc(-c3cccc([N+](=O)[O-])c3)o2)CC1	-0.8	x	0.5	-1.6	1.4	5.0%	-21.8
37	COc1ccc(C(CNC(=O)COc2c(C)cc(C)cc2C)N2CCOCC2)cc1 (stereo not given)	-2.6	x	x	-1.4	3.1	-8.6%	x
38	COc1ccc(OC)c(NC(=O)CSc2ccc3nnc(-c4cccnc4)n3n2)c1	0.3	-140.8	4.2	3.2	-0.2	0.8%	-2.4
39	c1ccc(-c2nc(N3CCCCC3)nc3ccccc23)cc1	0.5	1.6	40.9*	0.2	3.0	0.7%	2.0
40	O=C(NNC(=O)c1ccccc1[N+](=O)[O-])c1cccs1	-0.6	-1.6	-0.5	-4.1	0.8	3.6%	-0.6
41	Nc1ccc2c(c1)C(=O)N(CCCCCC(=O)O)C2	1.7	-2.7	-2.2	5.1	-0.7	11.3%	1.8
42	Cc1ccc(C(C)C)c(OCC(=O)NNC(=O)Cn2[nH]c(=O)c3ccccc3c2=O)c1	2.4	-0.1	x	6.6	2.8	32.2%	x
43	O=C(CC12CC3CC(CC(Br)(C3)C1)C2)Nc1cccc(S(=O)(=O)NC2=NCCC2)c1	2.9	-0.9	-0.9	4.2	-0.4	-7.6%	4.6
44	COCCn1c(-c2ccc(OC)cc2)cnc1N	5.4	4.9	u	2.9	1.3	u	25.0
45	COc1ccc(-n2c(Cc3cccn3C)nnc2SCC(=O)NC2CCCC2)cc1	-1.8	45.0	5.0	-0.3	5.0	3.1%	4.2

Structural class, the entries above containing a COOH group (two)
nr	Molecule	LANA-H2A inh	ALR H2O2 inh	RanGTP-Impb inh	Beta2AR agonist	HNF4A DNA FP	Vif TR-FRET	Calb FLC
3	O=C(O)CNc1ccccc1C(=O)O	-6.7	-1.1	3.7	2.2	-13.1	11.7%	-9.4
41	Nc1ccc2c(c1)C(=O)N(CCCCCC(=O)O)C2	1.7	-2.7	-2.2	5.1	-0.7	11.3%	1.8

The list continues:
nr	Molecule	LANA-H2A inh	ALR H2O2 inh	RanGTP-Impb inh	Beta2AR agonist	HNF4A DNA FP	Vif TR-FRET	Calb FLC
46	CCN1C(=O)[C@H]2[C@H]3CN=C(SCc4ccc(C)cc4)N3[C@@](Cc3ccccc3)(C(=O)OC)[C@H]2C1=O	x	x	x	4.1	-0.1	-11.8%	x
47	CC1(C)NC(=O)NC2(C)NC(=O)NC(C)(C)C12 (stereo not given)	-4.6	-2.7	5.7	6.6	-4.6	6.0%	x
48	CCCCCCCCC(=O)N/N=C(\C)c1cccnc1	4.1	x	-4.4	-0.3	-1.7	u	-19.7
49	CC1CN(c2ccc(Oc3ccccc3)cc2)c2nc3c(c(=O)[nH]c(=O)n3C)n2C1 (stereo not given)	x	x	-4.4	1.8	-2.7	5.0%&-7.4%	-3.3
50	COC(=O)c1ccccc1NC(=S)NC(NC(=O)COc1ccccc1)C(Cl)(Cl)Cl (stereo not given)	1.2	5.8	-2.1	-20.8	2.1	2.1%	16.9
51	COc1ccc(OC)c(CNc2ccc3c(c2)CCC3)c1	-4.8	-8.5	-3.3	-25.0	7.4	-4.0%	-2.8
52	COc1ccc(N2CCN(S(=O)(=O)CCNC(=O)COc3ccc(Cl)cc3)CC2)cc1	2.7	2.3	u	-1.4	-2.3	x	0.8
53	Cc1cc(NC(=O)CSc2nc3cc4c(cc3c(=O)n2CCc2ccccc2)OCO4)no1	0.4	1.1	-1.7	3.3	2.6	17.1%	-23.4
54	O=C(NCc1ccc2c(c1)OCO2)C1CCN(c2ncccn2)CC1	2.8	1.5	-0.6	-20.0	-5.9	-5.9%	-28.9
55	CN(C)CCCNC(=O)c1ccccc1Oc1ccccc1	2.2	-1.5	5.1	8.9	1.1	x	5.1
56	COc1ccc(C(=O)NCc2nnc(SCCOc3ccccc3)n2C)cc1	4.2	-4.7	1.6	-0.4	2.1	-4.6%	-12.4
57	O=C(Nc1ccc2c(c1)CCC2)C1CCN(c2ncccn2)CC1	6.0	-4.5	0.0	-2.8	4.1	24.3%	-16.7
58	Cc1onc(-c2c(F)cccc2Cl)c1C(=O)Nc1sc2c(c1C#N)CCC(C(C)(C)C)C2 (stereo not given)	-1.9	-14.8	0.0	23.6	7.2	-9.8%	-3.1
59	CCCc1nc2nc(C)c(NS(=O)(=O)c3ccc(Cl)cc3)c(=O)n2[nH]1	-5.9	20.0	-1.3	0.2	0.8	x	-6.9
60	C/C(CC(=O)Nc1ccc(OCc2ccccc2)cc1)=N\NC(=O)C(=O)Nc1ccccc1C	-0.1	3.7	1.3	-4.1	1.1	1.6%	-1.1
61	COc1ccc(S(N)(=O)=O)cc1C(=O)OCC(=O)N1CCCC(C)C1 (stereo not given)	-0.6	-12.9	x	-5.9	-1.7	x	x
62	O=C(N=C1SC2CS(=O)(=O)CC2N1c1cc(Cl)ccc1Cl)C1CC1 (stereo not given)	1.8	-3.7	2.0	-7.7	1.9	x	3.0
63	Cc1ccc(C(=O)N(CCCN(C)C)c2nc3ccc(Cl)cc3s2)cc1C	-3.0	-11.9	3.2	19.8	-0.7	0.5%	-11.2
64	CC(C)(C)OC(=O)N1CCN(C(=O)Nc2ccc3c(c2)OCCO3)CC1	2.0	-6.0	u	-5.8	3.3	-8.2%	0.3
65	CCOC(=O)c1sc(C)c2c(=O)n(Cc3ccc(Cl)cc3)c(C)nc12	0.0	-2.9	2.8	1.5	-0.9	16.8%	26.8
66	Cn1c2ccccc2c(=O)c2ccc(C#CC3(N)CCCCC3)cc21	-1.5	-3.6	163.4*	9.0	-6.6	x	-30.2
67	CC1=C(C(=O)Nc2ccccn2)C(c2ccc3c(c2)OCO3)C2=C(CC(C)(C)CC2=O)N1 (stereo not given)	-2.5	-2.1	-2.3	-28.2	-0.8	-5.1%	-17.7
68	O=C(CCS(=O)(=O)c1cc2c(cc1Cl)NC(=O)CO2)NCc1ccccc1	0.0	-0.8	-1.6	7.8	1.9	2.6%	-11.2
69	C[C@H](CO)N1C[C@H](C)[C@@H](CN(C)S(=O)(=O)c2ccccc2)Oc2ccc(NC(=O)C3CCCCC3)cc2C1=O	-3.6	-0.2	x	-3.0	2.9	x	x
